High-throughput results (PubChem)
KCNQ2 enhance = potentiators of rat KCNQ2 potassium channel; AID 2239, 2010; Potassium voltage-gated channel subfamily KQT member 2 (Rattus norvegicus), O88943; B-score at 10 µM; 0.54% of 310,000 active; CHO-K1 KCNQ2, FluxOR thallium flux fluorescence; hits give high values;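 active = fluorescence ratio B-score at least 3 SD of library B-scores, with initial fluorescence B-score within 3 SD, cut at about 5.3 in these data; same plate scores as AID 2156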;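 note: B-score of peak minus minimum over baseline fluorescence ratio after K+ and Tl+ stimulus; positive B-score means potentiation of KCNQ2 with more thallium influx and brighter signal; only the inactives scoring about 0 or higher are listed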
Target sequence (O88943 whole entry, looked up): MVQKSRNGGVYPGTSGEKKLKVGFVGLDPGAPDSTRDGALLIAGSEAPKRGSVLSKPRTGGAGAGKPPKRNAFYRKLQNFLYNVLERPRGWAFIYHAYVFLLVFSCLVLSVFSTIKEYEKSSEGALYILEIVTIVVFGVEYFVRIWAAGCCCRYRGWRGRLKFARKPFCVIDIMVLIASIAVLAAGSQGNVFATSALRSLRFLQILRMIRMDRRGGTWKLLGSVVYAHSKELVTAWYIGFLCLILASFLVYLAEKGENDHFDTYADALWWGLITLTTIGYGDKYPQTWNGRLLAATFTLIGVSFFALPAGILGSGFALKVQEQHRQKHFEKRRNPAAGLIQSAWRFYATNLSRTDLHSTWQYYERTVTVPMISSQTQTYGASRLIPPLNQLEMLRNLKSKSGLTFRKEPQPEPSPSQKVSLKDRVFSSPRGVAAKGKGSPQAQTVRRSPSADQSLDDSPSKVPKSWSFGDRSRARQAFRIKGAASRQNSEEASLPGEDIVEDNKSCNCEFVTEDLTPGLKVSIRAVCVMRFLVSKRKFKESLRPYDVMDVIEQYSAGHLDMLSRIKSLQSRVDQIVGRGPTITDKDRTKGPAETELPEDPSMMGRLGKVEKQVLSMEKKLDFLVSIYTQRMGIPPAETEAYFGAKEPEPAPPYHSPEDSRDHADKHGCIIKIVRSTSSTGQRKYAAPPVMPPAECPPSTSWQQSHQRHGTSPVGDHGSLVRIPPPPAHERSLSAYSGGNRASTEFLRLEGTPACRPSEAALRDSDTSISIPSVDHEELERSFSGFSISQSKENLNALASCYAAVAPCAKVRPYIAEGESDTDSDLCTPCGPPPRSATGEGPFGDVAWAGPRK
KCNQ2 enhance baseline = recorded beside KCNQ2 enhance, whose call it bears; B-score; compound at 10 µM; measured here: initial fluorescence intensity artifact check;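 brightness before thallium and not channel activity; 0 = typical well and far values either way flag optical interference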
* marks the source's active call; other numbers are inactive results. An excerpt; the hit share may differ from the screen's.

compound	KCNQ2 enhance	KCNQ2 enhance baseline
O=C(Nc1cc([N+](=O)[O-])ccc1C(=O)Nc1cccnc1)c1ccccc1	0.31	3
Cc1cc(=O)[nH]c(N/N=C/C2=C(N3CCOCC3)C(=C\c3ccc(Cl)cc3)/CC2)n1	0.01	0.03
Nc1cc(N)nc(SCC(=O)N2CCN(C(=O)c3ccco3)CC2)n1	0.7	1.3
COCCNC(=S)N(Cc1cccs1)Cc1cc2cccc(C)c2[nH]c1=O	0.36	-0.2
CC[C@H](C)[C@@H](C(=O)N1CCNCC1)n1cc([C@@H](N)Cc2ccc(O)cc2)nn1	0.87	-1.1
Cc1cc(C)c(OCC(=O)Nc2cccc(O)c2)cc1C	0.38	-1.4
CC(C)N(Cc1ccccc1)C(=O)c1ccc2nsnc2c1	1.6	0.79
c1ccc(COCCN2CCN(CCOCc3ccccc3)CC2)cc1	0.93	0.32
COc1ccc(NS(=O)(=O)c2cc(NC(=O)/C=C/c3cc(OC)c(OC)c(OC)c3)ccc2N2CCCCC2)cc1	0.74	-1.3
COc1cccc(NC(=O)N2CCC(C(N)=O)(N3CCCCC3)CC2)c1	1.4	0.27
CC(=O)c1ccc(N2CCN(C(=O)c3ccc(NC(=O)C4CCCO4)cc3)CC2)cc1 (stereo not drawn)	0.02	0.51
COCc1nc(-c2cc(Br)ccc2OC)no1	0.28	-0.71
CCOc1ccccc1OCCCC(=O)Nc1ccc(OC)nc1	0.87	-2.3
COc1cc(NC(=O)c2ccco2)c(OC)cc1NC(=O)CSc1nnc(-c2cccs2)n1C	0.19	-1.6
Cc1ccc(C(=O)c2ccccc2C(=O)O)cc1C	0.51	0.5

Arranged by number of heavy atoms (largest number first): part of the list above.
compound	KCNQ2 enhance	KCNQ2 enhance baseline
COc1cc(NC(=O)c2ccco2)c(OC)cc1NC(=O)CSc1nnc(-c2cccs2)n1C	0.19	-1.6
CC(=O)c1ccc(N2CCN(C(=O)c3ccc(NC(=O)C4CCCO4)cc3)CC2)cc1 (stereo not drawn)	0.02	0.51
COc1cccc(NC(=O)N2CCC(C(N)=O)(N3CCCCC3)CC2)c1	1.4	0.27
Cc1ccc(C(=O)c2ccccc2C(=O)O)cc1C	0.51	0.5

Further results.
compound	KCNQ2 enhance	KCNQ2 enhance baseline
CCNc1ccc(C(=O)OCC(=O)NC(=O)NCC(C)C)cc1[N+](=O)[O-]	1.3	1
O=C(NCCOc1ccccc1)C1CCC(=O)N(CCCN2CCCC2=O)C1 (stereo not drawn)	0.01	0.35
CCN(CC)C(=O)c1sc(NC(=O)C(C)C)c(C#N)c1C	0.68	-3.8
CCC1CCCCN1CCCNC(=O)CN1C(=O)COc2ccccc21 (stereo not drawn)	0.59	1.4
CC1CN(C(=O)c2ccc(N3CCCCC3)c([N+](=O)[O-])c2)CC(C)O1 (stereo not drawn)	0.22	-0.4
COc1ccc(C2=C(SC)CC2=NC(C)(C)C)cc1	0.23	0.41
O=C(N/N=C/c1ccc(Cl)cc1Cl)C(=O)NC1CC1	0.35	-0.02
Cc1ccc(NC(=O)C(C)N2CCc3ccccc3C2)cc1 (stereo not drawn)	0.1	-0.02
Cc1cccc2cc(-c3ccccc3)c(-c3ccccc3)c[n+]12	1.2	-1
Cc1cc(NC(=O)c2noc3c2CCCC3)no1	3	-1.1
C#CCOCCOCCOCCNc1nc(N2CCN(C(=O)Cn3cc(CCCCN)nn3)CC2)nc(N2CCN(C(=O)Cn3cc(CCCCN)nn3)CC2)n1	1.7	1.7
COc1ccc(CNC(=O)CS(=O)Cc2nc(-c3ccccc3C)oc2C)cc1 (stereo not drawn)	0.86	-0.27
COc1ccc(NC(=O)c2ccc(S(=O)(=O)N3CCCCCC3)cc2)c(OC)c1	0.42	-0.14
Cn1c(=O)n(C)c2cc(NC(=O)CSc3ccccc3)ccc21	1.8	0.89
CC(=O)N1CCc2c(sc(NC(=O)Cc3ccc(F)cc3)c2C(N)=O)C1	0.24	0.3
C[C@@]12C(=O)N(Cc3ccccc3)CC(=O)N1[C@H](/C=C/c1ccccc1)[C@@H]1C(=O)N(c3ccccc3)C(=O)[C@@H]12	0.94	-1.6
O=C1CC2C(=O)NCCN2C(=NC(=O)c2ccc(Cl)cc2)N1 (stereo not drawn)	0.44	-0.08
Oc1c(Cl)cc(Cl)c(Cl)c1Cc1c(O)c(Cl)cc(Cl)c1Cl	26*	4.3*
O=C(NN1CCOCC1)c1ccc(Cl)c([N+](=O)[O-])c1	0.41	-0.43
O=C(CCSCc1cccc(Cl)c1)NCCC1=CCCCC1	2.7	0.17
COc1ccc(S(=O)(=O)N(C)c2ccc(C(=O)N3CCCCC3)cc2)cc1OC	1.4	1.4
COc1ccc(NS(=O)(=O)c2ccc(N3CCOCC3)c(NC(=O)c3ccc(F)cc3)c2)cc1	1.2	-0.95
COCc1c(C(=O)OCC(=O)c2c(N)n(CC(C)C)c(=O)n(C)c2=O)oc2ccccc12	0.73	0.92
CCOC(=O)c1c(N)sc(N)c1C(=O)OCC	9.7*	0.63*
CC(C)(C)NC(=O)CN(C(=O)CCC(=O)Nc1nccs1)c1ccc(F)c(Cl)c1	1.9	-0.13
Cc1ccc(OCCNC(=O)Cc2ccc(S(=O)(=O)N3CCOCC3)s2)cc1	1.2	-1.6
CSc1ccccc1NC(=O)CSc1nnc(Cc2ccccc2)o1	0.14	0.23
Cc1nc2cc(NC(=O)Nc3nccs3)ccc2n1C	1.3	-0.8
Cc1ccc(-n2nnnc2SCC(=O)Nc2ncc(Cc3ccccc3Cl)s2)cc1	0.3	0.39
Cc1ccccc1NCC(=O)N/N=C\c1ccc2c(c1)OCO2	0.9	-0.02
Cc1ccc(C)c(NC(=O)Cn2cc(C(=O)C3CC3)c3ccccc32)c1	0.05	0.28
CCc1nnc(NC(=O)c2cccc(OC)c2)s1	0.6	2.7
O=C(N/N=C/c1cc(Br)c(O)c([N+](=O)[O-])c1)C(O)(c1ccccc1)c1ccccc1	1.7	-3.4
Cn1c(CNC(=O)c2ccco2)nnc1SCC(=O)Nc1ccc(Br)cc1F	0.04	-0.91
CCC(C)NC(=O)CN(c1ccc(OC)cc1)S(=O)(=O)c1ccc(NC(C)=O)cc1 (stereo not drawn)	0.87	-1.6
Cc1ccc(S(=O)(=O)N2CCN(C(=O)COC(=O)c3c(C)cc(C)cc3C)CC2)c(C)c1	6.2*	1.1*
CCCCSc1nnc(-c2ccc(NC(=O)CCc3ccccc3)cc2)n1C	0.71	-0.05
CCOc1ccc(NC(=O)c2cccc3c2C(=O)N(CC2CCCO2)C3)cc1 (stereo not drawn)	0.45	-1.1
CC(=O)c1c(C(C)=O)c(C)n(Cc2ccccc2)c1C	0.1	0.52
CN(C)CCNC(=O)c1cc(Sc2ccc(F)cc2)nc2ccccc12	0.25	-0.84
CC(C)Cc1nc2sc3c(=O)[nH]cnc3c2c2c1CCCC2	1.5	1.2
CC(=O)NC1(C(F)(F)F)C(=O)N(Cc2ccccc2)C2=C1C(=O)CC(C)(C)C2 (stereo not drawn)	0.74	-0.62
CCCCCN1C(=O)Cn2c(nc3ccccc3c2=O)C1C (stereo not drawn)	0.95	0.07
COc1ccc(/C=N/NC(=O)OC(C)(C)C)cc1OC	1.6	0.01
Cc1ccc(CNC(=O)C2CC(c3cccc([N+](=O)[O-])c3)=NO2)cc1 (stereo not drawn)	0.47	0.88
COc1ccc(OC)c(NC(=O)c2cc(S(=O)(=O)N3CCCCC3)c[nH]2)c1	1.3	-0.19
Cc1cc(C)nc(/N=c2/ssnc2Cl)c1	0.13	0.2
CCOC(=O)CCNc1n[nH]c(=O)[nH]c1=O	1.6	-0.88
Cc1ccccc1OCC(=O)N1CCN(C(=O)COc2ccccc2C)CC1	0.62	2.1
O=C(Cn1cnc([N+](=O)[O-])c1)NCCc1ccccc1	0.86	-0.07
O=C(O)c1ccc(/C=N/NC(=O)c2cc3c(ccc4ccccc43)o2)cc1	0.1	-2.2
Cc1c(C(=O)O)cccc1-c1ccc(/C=N/Nc2ccc(Br)cc2)o1	2.4	-1.2
CCOc1ccc(NC(=O)c2ccc(N)cc2)cc1	1.6	0.57
O=C(COc1ccccc1[N+](=O)[O-])NCc1cccnc1	0.07	-0.16
COc1ccc(-n2c(SCC(=O)O)nnc2-c2ccc(NC(=O)c3ccccc3)cc2)cc1	0.11	-0.33
CCN1CCN(c2cc(C)c3cc(NC(=S)N4CCN(c5ccccc5F)CC4)ccc3n2)CC1	0.51	-1.2
Cc1ccc(C(=O)N/C(=C\c2ccc(-c3ccccc3[N+](=O)[O-])o2)C(=O)NCCCN2CCOCC2)cc1	2.2	-0.89
Cn1nnnc1SCc1cn2cccnc2n1	0.63	0.61
N#CCC(=O)NCCCOC(=O)Nc1ccc(Cl)c(Cl)c1	1.1	-0.46
Cc1ccc(C(=O)NCC(=O)Nc2ccccc2C(F)(F)F)cc1	0.47	-1.6

Further results follow.
compound	KCNQ2 enhance	KCNQ2 enhance baseline
Cc1ccc(NC(=O)CSc2nnc(-c3ccccn3)n2N)c(Br)c1	0.77	-0.92
COc1ccc(C(=O)NCCCN2CCOCC2)cc1Br	0.01	0.71
COc1cccc(NC(=O)C(=O)N/N=C(\C)CC(=O)Nc2ccc(NC(C)=O)cc2)c1	1.2	0.78
Cc1cc(C)nc(Nc2ccccc2F)n1	0.49	-1.4
Nc1nnnn1/N=C/c1ccc(Cl)cc1	1.4	-1.3
O=C(Nc1ccc(CN2CCCCC2)cc1)c1cccc(Br)c1	0.9	1.5
COc1cccc(C(=O)O/N=C(\N)CS(=O)(=O)c2ccccc2)c1	0.79	-1.6
CCN(CC)C(=O)CSc1nnc(NC(=O)CCc2ccccc2)s1	1.7	-0.64
COc1ccc(/C=C/C(=O)OC(C)CN2CCCCC2)cc1 (stereo not drawn)	0.72	1.1
O=C(NC1CCCCCC1)c1ccc(N2CCCC2=O)cc1	0.08	-0.22
COc1ccc(NC(=O)c2oc3ccc(S(=O)(=O)N4CCOCC4)cc3c2C)cc1	0.04	0.77
CCCc1ccc(OCc2nc(-c3ccc(NC(=O)c4cccs4)cc3)no2)cc1	0.05	-0.04
CC(C)CC(=O)Nc1ccc(C(=O)NNC(=O)C(c2ccccc2)c2ccccc2)cc1	1.5	0.68
COc1cc(C(=O)NC(C)c2ccc3ccccc3c2)cc(Cl)c1O (stereo not drawn)	0.07	-0.07
CCOc1ccc(NC(=O)C/C(C)=N/NC(=O)c2cnccn2)cc1	1.6	-0.18
O=c1c(Oc2ccccc2)coc2cc(O)cc(O)c12	0.65	-0.48
CC(=O)N1CCSc2ccc(S(=O)(=O)Nc3cccc(C)c3)cc21	0.39	-0.46
COC(=O)CCN(C(=O)C1C2CC3CC(C2)CC1C3)c1ccccn1 (stereo not drawn)	0.48	-2.3
CSc1ccccc1OCc1cc(C(=O)N2CCCC(C)C2)no1 (stereo not drawn)	0.24	0.87
COCCNC(=O)C(=O)NNC(=O)COc1ccc(OC)cc1	1.7	0.5
CC(Oc1ccccc1F)C(=O)NNC(=O)CCNC(=O)c1ccccc1Cl (stereo not drawn)	0.12	-0.53
CCN1CCCC1CNCc1cccc(OC)c1OCc1ccc(F)cc1 (stereo not drawn)	1.8	-0.02
O=C(Cn1cc(S(=O)(=O)Cc2ccccc2)c2ccccc21)Nc1ccccc1	0.16	-0.72
CCn1cc(C(=O)NCCN(C)C)c(=O)c2cc(F)c(N3CCN(C)CC3)cc21	0.4	1.6
CCCCN(CC)C(=O)Cc1c(C(=O)O)[nH]c2ccc(Cl)cc12	2	-0.34
COc1ccc(NC(=O)CC2C(=O)N(c3ccc(OC)cc3)C(=O)N2C(C)C)cc1 (stereo not drawn)	1.3	-1.5
CC(=O)c1ccc(NC(=O)C(C)OC(=O)CCCN=C2NS(=O)(=O)c3ccccc32)cc1 (stereo not drawn)	0.11	1.8
O=C(CN1C(=O)NC(Cc2c[nH]c3ccccc23)C1=O)NCCc1ccccc1 (stereo not drawn)	0.16	0.18
CN(Cc1ccno1)Cc1cn(Cc2ccccc2)nc1-c1ccc2c(c1)OCO2	1.5	-3.2
NC(=O)c1cc(Cl)cn(-c2ccccc2)c1=O	1.2	0
O=S(=O)(NCc1ccc2c(c1)OCO2)c1cccc(S(=O)(=O)N2CCOCC2)c1	0.46	-0.17
Cc1cc(C)n(Cc2cccc(C(=O)N/N=C/c3cccnc3)c2)n1	0.34	0.99
CN(Cc1ccccc1)S(=O)(=O)c1ccc(Cl)c(C(=O)NCc2ccncc2)c1	0.29	-0.16
O=C(Nc1cccnc1)c1cn(-c2ccccc2)nc1-c1cccs1	0.02	-1.7
CC(=O)Nc1ccc(C2(O)COc3ccccc3O2)cc1 (stereo not drawn)	0.76	0.79
